# Biofilm kill mix – mixtures killing C. albicans biofilm. C. albicans biofilm persisters + clotrimazole, fluorescence viability; primary screen in compound mixtures of four per well. inhibition, % at 7.6 µM. 0.02% of 120,000 active. AID 1242;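 active = inhibition above 30.3% in the primary screen of four-compound pools, then above 30% when the compound was retested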;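 also: compounds exposed to preformed 24 h biofilms for 48 h; the number belongs to the whole pool; some results filed as inactive read as strong as hits; inactives centre near 12; 0% = biofilm with clotrimazole alone and 100% = kill control; retested singly at about 60 µM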
#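 Test system: C. albicans CAF4-2 wild-type biofilms; buffer or medium: RPMI/MOPS medium, pH 7.0; schedule: 24 h biofilm formation, then 48 h compound exposure, 37 °C; detection: Alamar Blue fluorescence; measure: percent inhibition of biofilm viability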
# * = called active by the depositor. An excerpt; rates above refer to the full screens.
SMILES,Biofilm kill mix
COC(=O)COc1cc2ccccc2cc1C(=O)Nc1ccccc1,12
c1ccc(OCc2nn3c(-c4cccnc4)nnc3s2)cc1,10
Cc1cc(C(=O)NNC(=O)Nc2ccc(Cl)cc2)no1,21
O=C(Cn1nnc(-c2cccs2)n1)N1c2ccccc2Sc2ccc(C(F)(F)F)cc21,17
CC(=O)Nc1ccc(Nc2ccc(S(=O)(=O)C(F)(F)F)cc2[N+](=O)[O-])cc1,25
Cc1ccc2c(c1)S/C(=C/c1ccc[n+](CCO)c1)N2C,20
COc1c(O)ccc(/C=N/NC(=O)c2ccc3c(c2)OCCO3)c1[N+](=O)[O-],25
CCNC(=S)N/N=C/c1ccc(C#N)cc1,4
Cc1cc(OC(=O)C2CC2)c([N+](=O)[O-])c(=O)[nH]1,19
CCC(=O)Nc1nc2ccc(NC(=O)c3cc(OC)c(OC)c(OC)c3)cc2s1,24
Cc1cc(C)cc(NC(=O)Nc2cccc(S(N)(=O)=O)c2)c1,11
Cc1ccc(S(=O)(=O)N2CCN(C(=O)N(C)C)CC2)cc1,6
CCN1C(=O)/C(=C\C=C2/C=CC=CN2CC)SC1=S,9
COc1cc(N=c2oc3c(C)ncc(CO)c3cc2C(N)=O)cc(OC)c1OC,11
COc1ccc(OCCSc2nnc3c(Cl)cc(Cl)cn23)cc1,11
N#CC1(Nc2cccc(Br)c2)C(=O)Nc2ccccc21 (stereo not drawn),-1
Cc1cc(C)nc(SCc2ccc(C(=O)N/N=C/c3ccncc3)cc2)n1,13
O=C(Nc1ccon1)c1ccc(S(=O)(=O)N2CCOCC2)cc1,13
Cc1ccc(-n2c(SCC(=O)N3c4ccccc4Sc4ccccc43)nnc2-c2ccncc2)cc1,13
O=C(O)c1ccc2nc(-c3ccco3)c(-c3ccco3)nc2c1,-2
CSc1ccc(C(=O)C2CCCN(S(=O)(=O)c3c(C)noc3C)C2)cc1 (stereo not drawn),-1
Cc1ccccc1-n1c(=O)c2ccccc2n(CC(=O)NCc2ccco2)c1=O,14
O=C1N=C(N2CCCCC2)S/C1=C\c1ccncc1,27
CCO[C@@H]1OC(C(=O)NC2CC2)=C[C@H](c2ccc(C(F)(F)F)cc2)[C@H]1CCCO,24
COc1cccc2cc(C(C)N(CCCN3CCOCC3)C(=S)Nc3c(C)cccc3C)oc12 (stereo not drawn),-1
O=C(NCCN1CCOCC1)C12CC3CC(C1)CC(c1ccccc1)(C3)C2,14
COCCNCC(=O)Nc1ccc(OC(F)(F)F)cc1,13
Cc1nn(C(C)C(=O)Nc2ccc3c(c2)OCO3)c(C)c1[N+](=O)[O-] (stereo not drawn),1
COc1ccc(NC(=O)Nc2ccccc2F)cc1Cl,19
CC(=O)N1CC[n+]2c(-c3ccc(Cl)cc3)csc21,17
Cc1ccnc(N2CCC(C(=O)NCc3ccccc3F)CC2)n1,9
C#CCOCCOCCOCCNc1nc(N2CCN(C(=O)[C@H]([C@@H](C)O)n3cc(CCCCN)nn3)CC2)nc(N2CCN(C(=O)[C@H](C)n3cc(CCCN=C(N)N)nn3)CC2)n1,4
CC(=O)c1ccc(N2CCN(C(=O)c3cc4c(s3)CCCC4)CC2)cc1,-1
COc1ccc(C(=O)Nc2ccc(S(=O)(=O)NC(C)=O)cc2)cc1[N+](=O)[O-],-8
O=C(NC1=NCCS1)c1cc(-c2cccnc2)nc2ccccc12,19
S=C(Nc1ccc(Cl)cc1Cl)Nn1cnnc1,10

# Continued, overlapping the part above by 6 compounds.
SMILES,Biofilm kill mix
Cc1ccnc(N2CCC(C(=O)NCc3ccccc3F)CC2)n1,9
C#CCOCCOCCOCCNc1nc(N2CCN(C(=O)[C@H]([C@@H](C)O)n3cc(CCCCN)nn3)CC2)nc(N2CCN(C(=O)[C@H](C)n3cc(CCCN=C(N)N)nn3)CC2)n1,4
CC(=O)c1ccc(N2CCN(C(=O)c3cc4c(s3)CCCC4)CC2)cc1,-1
COc1ccc(C(=O)Nc2ccc(S(=O)(=O)NC(C)=O)cc2)cc1[N+](=O)[O-],-8
O=C(NC1=NCCS1)c1cc(-c2cccnc2)nc2ccccc12,19
S=C(Nc1ccc(Cl)cc1Cl)Nn1cnnc1,10
Cc1ccc(C(=O)NC(NCc2ccco2)C(Cl)(Cl)Cl)cc1 (stereo not drawn),11
Cc1ccc(NC(=O)C(NC2CCCc3ccccc32)c2ccccc2)cc1Cl (stereo not drawn),18
Cc1ccc(C(=O)Nc2nnc(C)s2)cc1,6
CC1CCCC(NC(=O)c2cccc(N3CCCC3=O)c2)C1C (stereo not drawn),5
CCOP(=O)(OCC)C(NC(=O)Nc1ccc(Cl)cc1)c1ccccc1 (stereo not drawn),13
Cc1ccc(S(=O)(=O)Nc2cccc(N(C)S(C)(=O)=O)c2)cc1[N+](=O)[O-],5
S=c1nc(-c2ccccc2)[nH]c2ccccc12,5
CN(Cc1ccon1)C(=O)CCc1nnc(Cc2ccc(-c3ccccc3)cc2)o1,9
Cn1c(=O)c2[nH]c(N3CCN(c4ccccn4)CC3)nc2n(C)c1=O,23
COc1cccc(OC)c1OCCCOc1cccc2cccnc12,12
CCc1cc(C(=O)Nc2ccc(C)cc2Br)cs1,4
Cc1[nH]c2ccccc2c1C(=O)CSc1ncn[nH]1,10
COC(=O)c1sccc1NC(=O)COc1ccc(Cl)cc1,9
O=c1onc(-c2cccnc2)n1-c1ccccc1F,23
COc1cc(C(N)=O)cc(Cl)c1OC,9
C/C(=N\NC(=S)Nc1cc(S(=O)(=O)N2CCOCC2)ccc1Cl)c1ccccc1F,11
COc1ccc(/C=N/Nc2ccc(C(=O)O)cc2)cc1Br,3
O=[N+]([O-])c1ccc(N2CCCCC2)c(-c2nn[nH]n2)c1,10
CCC(=O)OCCn1c(=O)c2ccccc2c2ccccc2c1=O,7
Cc1sc(NC(=O)Cn2cnnn2)nc1-c1ccc(Cl)cc1,13
Cc1onc(-c2ccccc2)c1NC(=O)N(CCC#N)Cc1cccs1,27
CCCCNC(=S)N(C)/N=C/c1ccc(OCC(=O)Nc2ccc(OC)cc2)c(OC)c1,17
Cc1ccccc1-n1nc(C(=O)c2cccs2)cc(-c2nc3ccccc3[nH]2)c1=N,5
Cc1ccc2c(COC(=O)C34CC5CC(CC(C5)C3)C4)cc(=O)oc2c1,6
CN(C)CCCN1c2ccccc2Sc2ccc(Cl)cc21,8
COc1ccc(O)c(CNn2c(-c3ccc(Br)cc3)nc3ccccc3c2=O)c1,13
CCn1nnnc1SCC(=O)N1CCc2ccccc21,7
O=C(Nc1ccccc1N1CCCCC1)c1cnccn1,8
COc1ccc(Br)cc1/C=C/C(=O)Nc1ccc(C)cc1,13
CC(=O)Oc1ccc2c(=O)c(N3C(=O)c4ccccc4C3=O)c(C)oc2c1,6
Cc1[nH]nc2c1C(c1cccs1)C1=C(CCCC1=O)N2 (stereo not drawn),13
O=C(CSc1ccccc1)NCCSCc1ccccc1,23
Cc1cc2nnc(SCC(=O)N3CCOCC3)n2c2ccccc12,6
CCCc1c(C(=O)N2CCN(c3ccccc3OC)CC2)cnn1-c1ccccc1,17
Cc1cc(C)c2nc(C)cc(Nc3ccc(C(=O)NCCO)cc3)c2c1,11
C/C(=N\NC1=NCCN1)c1ccccc1,29
O=c1oc2ccccc2cc1-c1ccc(O)cc1,11
O=C(COC(=O)CCSc1ccccc1)Nc1ccc(F)cc1Cl,14
COc1cccc(NC(=O)c2cccc(C)c2[N+](=O)[O-])c1,11
COc1ccc(NC(=O)c2ccc(-c3ccccc3)cc2)cc1S(=O)(=O)N1CCOCC1,0
Cc1cc(C)c(-c2csc(NC(=O)COC(=O)c3ccc4c(c3)OCO4)n2)c(C)c1,17
COc1ccc(NC(=O)Cc2c(C)n(C(=O)c3ccc(Cl)cc3)c3ccc(OC)cc23)cc1,15
COc1cccc(NC(=O)C2CCC(CNS(=O)(=O)c3cccs3)CC2)c1 (stereo not drawn),0
Fc1cccc2sc(N3CCOCC3)nc12,1
Cc1ccc(NC(=O)CN2CCCCCC2)cc1Br,5
CC(C)OCC1Cn2c(nc3c2c(=O)n(C)c(=O)n3C)O1 (stereo not drawn),2
Cc1ccc2nc(SCC(=O)Nc3ccccc3N3CCOCC3)c(C#N)cc2c1,11
C#CCOc1c(Cl)cc(/C=N/O)cc1OC,-11

# Two entries picked at random from those above:
SMILES,Biofilm kill mix
Cc1ccc2nc(SCC(=O)Nc3ccccc3N3CCOCC3)c(C#N)cc2c1,11
COc1cccc(NC(=O)c2cccc(C)c2[N+](=O)[O-])c1,11

# More records
SMILES,Biofilm kill mix
COc1c(F)c(F)c(C(=O)Nc2c(C)cc(Br)cc2C)c(F)c1F,7
O=C(NC(=S)Nc1cc(C(F)(F)F)ccc1N1CCOCC1)c1ccc(-c2cccc(Cl)c2)o1,10
CCC1(C)Cc2nc(Cl)c(C#N)cc2CO1 (stereo not drawn),17
NS(=O)(=O)c1ccc(NNC(=O)c2cccs2)cc1,2
COc1cc(C)ccc1OCCOCCOc1ccc(C)cc1[N+](=O)[O-],9
O=C(CCC(=O)NNC(=O)COc1ccc(Br)cc1)NCc1ccccc1,19
O=C(CCCCCN1C(=O)c2ccccc2C1=O)Oc1ccc2c3c(c(=O)oc2c1)CCC3,6
COc1ccc(S(=O)(=O)NC(CCSC)C(=O)NC2CCCCC2)cc1 (stereo not drawn),7
CCOc1cc(CNc2ncn[nH]2)ccc1OCC(=O)NC(C)(C)C,2
CCn1c(-c2ccccc2Cl)nn(CC(=O)NCCc2ccccc2)c1=S,19
Cc1ccc(S(=O)(=O)NCC2CCC(C(=O)NCc3cccs3)CC2)cc1 (stereo not drawn),4
O=C(c1cc([N+](=O)[O-])cc([N+](=O)[O-])c1)N(Cc1nnc(-c2ccccc2Cl)o1)C1CC1,10

# The list goes on; the last 6 above are carried over.
SMILES,Biofilm kill mix
O=C(CCCCCN1C(=O)c2ccccc2C1=O)Oc1ccc2c3c(c(=O)oc2c1)CCC3,6
COc1ccc(S(=O)(=O)NC(CCSC)C(=O)NC2CCCCC2)cc1 (stereo not drawn),7
CCOc1cc(CNc2ncn[nH]2)ccc1OCC(=O)NC(C)(C)C,2
CCn1c(-c2ccccc2Cl)nn(CC(=O)NCCc2ccccc2)c1=S,19
Cc1ccc(S(=O)(=O)NCC2CCC(C(=O)NCc3cccs3)CC2)cc1 (stereo not drawn),4
O=C(c1cc([N+](=O)[O-])cc([N+](=O)[O-])c1)N(Cc1nnc(-c2ccccc2Cl)o1)C1CC1,10
O=C(N/N=C/c1ccccc1C(=O)O)c1ccccc1Br,9
CCCC(=O)N1CCN(c2ccc([N+](=O)[O-])cc2Cl)CC1,9
O=C(Oc1ccc(Cl)c2cccnc12)N1CCCCCC1,7
Cc1nn2c(NCCCN(C)C)c3c(nc2c1-c1ccccc1)CCCC3,22
Cc1ccccc1OCCNC(=O)c1ccc2ccccc2n1,15
c1ccc(-c2c3ccccc3nc3[nH]c4ccccc4c23)cc1,13
O=C(Nc1cccc(C(F)(F)F)c1)Oc1ccc(Cl)c2cccnc12,-6
COc1ccc(CNC(=O)/C(C#N)=C2\N=C(NC(=O)c3cccs3)c3ccccc32)cc1,18
COc1ccc(OCC(=O)Nc2ccccc2-c2ccccc2)cc1,4
CN(C)Cc1cccc([N+](=O)[O-])c1O,6
CCn1c(C)nc2cc(C(=O)NNC(=O)c3ccc(Cl)nc3)ccc21,-6
O=S(=O)(NCCc1ccncc1)c1ccccc1,0
COCCNC(=O)c1ccccc1NC(=O)Cc1ccccc1[N+](=O)[O-],-13
Cc1cc(C(=O)OCC(=O)N(C)c2ccccc2)ccc1[N+](=O)[O-],-5
O=C1CN(c2ccccc2)C(=O)N1,18
COc1cc(C2SCCS2)cc(Br)c1Oc1ncccc1[N+](=O)[O-],15
CCCCNC(=O)C(c1ccc(-c2ccccc2)cc1)N(CCN1CCOCC1)C(=O)CCCCCN1C(=O)NC(c2ccc([N+](=O)[O-])cc2)C(C(=O)OCc2ccccc2)=C1C (stereo not drawn),6
CC(=O)Nc1nc(-c2ccc([N+](=O)[O-])cc2)cs1,10
CCC(C)(C)NC(=O)CN(C(=O)c1csnn1)c1ccccc1-c1ccccc1,12
O=C(C1=C[C@@H](c2ccccc2)C[C@@H](OCCCCO)O1)N1CCN(Cc2ccc3c(c2)OCO3)CC1,21
C=CCN1N=C(c2ccc(NC(=O)c3ccccc3)cc2)CSC1=O,10
C[C@]12CC[C@@H]3c4ccc(OC(=O)c5ccccc5)cc4CC[C@H]3[C@@H]1CC[C@@H]2O,7
COc1ccc(CC(=O)N[C@@H](CCSC)c2nc3ccccc3[nH]2)cc1,3
CC1(C)CC(c2nc(-c3ccc([N+](=O)[O-])cc3)cs2)CCO1 (stereo not drawn),13
CCC(Oc1ccccc1)C(=O)Nc1ncc([N+](=O)[O-])s1 (stereo not drawn),34
O=C(CN1C(=O)S/C(=C\C=C\c2ccccc2)C1=O)Nc1ccc(O)cc1,15
Cn1ncc(-c2ccno2)c1C(=O)O,12
COC(=O)c1c(-c2cccc(C)c2)csc1NC(=O)C1CCCO1 (stereo not drawn),4
Cc1ccc2nc(Cl)c(/C=N/NC(=O)c3ccccc3O)cc2c1,10
COc1cc(OC)c2ccc(=O)oc2c1C(CCN1CCN(c2ccccc2)CC1)c1ccc(N(C)C)cc1 (stereo not drawn),15
CSc1ccccc1NC(=O)CNCCCN1CCOCC1,15
O=S(=O)(c1ccccc1)N1CCN=C1SCc1ccccc1,7
COc1ccc(N2CCN(C(=O)COc3ncnc4ccccc34)CC2)cc1,10
CN1CCN(NC(=O)c2cccc(C(F)(F)F)c2)CC1,15
O=C(CNC(=O)c1ccc2c(c1)OCCO2)N/N=C/c1ccco1,10
O=C(Nc1nc2c(s1)CCCC2)c1nn(Cc2ccccc2)c(=O)c2ccccc12,14
C=CCn1c(N)cc(=O)nc1SCC(=O)N(c1ccccc1)c1ccccc1,9
Cc1ccc(NC(=O)COC(=O)/C(=C/c2cccs2)c2cccs2)cc1S(=O)(=O)N(C)C,15
CC(C)c1onc(C(=O)NC2CCCCC2)c1[N+](=O)[O-],21
O=C(NN1C(=O)C2C3C=CC(C4CC34)C2C1=O)c1cccc(Br)c1 (stereo not drawn),13
COc1ccccc1NC(=S)NNC(=O)c1ccncc1,5

# Screens (PubChem BioAssay)
